Sa growth 42C: S. aureus growth inhibition; S. aureus RN4220 growth, OD600, 20 h, 42 °C; hits give low values; relative growth, % (concentration not given with the values); actives 0.53% (n = 170,000); AID 720641;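 active = growth at 42 °C up to 50% and 20 or more points under that at 30 °C, or under 10% at both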;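 also: 300 nL library stock went into each well; scaled to the means of positive and negative controls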
GIV-Gai inh: GIV-Galpha-i interaction inhibition | P08753 | Galpha-i3/FITC-GIV peptide fluorescence polarization, 90 min; hits give low values; scaled: aluminum fluoride 0%, vehicle 100% | percent of control (FP), % (concentration not given with the values) | actives 0.42% (n = 210,000) | AID 1224905;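 active = replicate mean at 85% of control or lower, very high polarization wells dropped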;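 also: wells of about 15 µL received 100 nL stock; the first replicate is given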
Target sequence (P08753 whole entry, looked up): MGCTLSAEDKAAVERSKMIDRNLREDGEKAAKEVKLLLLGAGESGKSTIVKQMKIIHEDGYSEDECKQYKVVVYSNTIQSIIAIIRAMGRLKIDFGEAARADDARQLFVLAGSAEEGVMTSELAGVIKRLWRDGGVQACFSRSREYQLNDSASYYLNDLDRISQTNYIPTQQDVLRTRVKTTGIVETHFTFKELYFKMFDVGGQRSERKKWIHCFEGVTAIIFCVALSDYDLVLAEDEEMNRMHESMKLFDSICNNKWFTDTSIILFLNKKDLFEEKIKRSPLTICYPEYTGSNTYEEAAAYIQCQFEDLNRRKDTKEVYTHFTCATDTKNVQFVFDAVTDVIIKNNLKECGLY
HCMV UL50-53 inh: disrupts HCMV UL50-UL53 complex binding; HTRF UL50-UL53 interaction, normalized percent inhibition; inhibition, % (concentration not given with the values); actives 0.15% (n = 190,000);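 active = both replicates at 50% or more, plus weaker picks with an unusually low signal ratio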;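 also: stock transfer was 100 nL into about 20 µL; 0% = negative control wells and 100% = wells with untagged competitor protein; inactives centre near -12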
Sa growth 42C second temp: further read-out of Sa growth 42C, marked with its call; relative growth, %; measured here: growth at 30 °C;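 optical density after 20 h as mean of two plates; 100% = untreated growth and lower means inhibition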
Numbers without * were called inactive; x = not tested or not shown; & = joins results of further samples.

structure,Sa growth 42C,Sa growth 42C second temp,GIV-Gai inh,HCMV UL50-53 inh
COc1ccc2[nH]c3c(c2c1)CCNC3CC(C)CCC=C(C)C (stereo unspecified),x,x,101,-12
O=C(Cn1nc(-c2ccccc2)ccc1=O)NCc1cccs1,109,81,104,x
CN(N)C1=NS(=O)(=O)c2ccccc21,109,85,103,-31
CCOC(=O)c1ccc(-c2ccc(/C=C3\Sc4ccccc4C3=O)o2)cc1,x,x,116,-18
Cc1ccc(-n2nc(CO)c(C(=O)NCc3cccnc3)n2)cc1C,102,93,101,8
O=C1c2ccncc2C(=O)N1CNc1ccccc1,91,80,98,-68
O=c1c(I)cn(Cc2ccccc2)c(=O)n1Cc1ccccc1,112,91,104,x
Cc1ccccc1C(=O)NC1CCN(CC(=O)N2CCCCC2C)CC1 (stereo unspecified),95,104,101,-3

Carrying on:
structure,Sa growth 42C,Sa growth 42C second temp,GIV-Gai inh,HCMV UL50-53 inh
COc1ccc(OC)c(-c2sccc2CC(=O)O)c1,97,95,98,4
CCN(CC)c1nc2ccccc2c(=O)s1,98,85,99,-24
Cc1nn(Cc2ccccc2Cl)c(C)c1C(=O)NCC(C)C,77,86,x,-7
CCCCn1c(O)c(C2=NN(C(=O)CC)C(c3ccc4c(c3)OCO4)C2)c(=O)[nH]c1=S (stereo unspecified),x,x,100,-28
O=C(Nc1ccc(N2CCCCC2)cc1)c1ccc2nonc2c1,109,86,100,-11
Cc1cccc(N2CCN(CCCNC(=O)Cn3ncc4c([nH]c5ccccc54)c3=O)CC2C)c1 (stereo unspecified),99,98,105,x
Fc1ccc(CSc2nncn3c2cc2occc23)c(Cl)c1,86,82,105,x
CCOC(=O)c1c(-c2ccccc2)oc2ccc(OC(=O)c3ccc(Br)cc3)cc12,x,x,105,-16

Other records:
structure,Sa growth 42C,Sa growth 42C second temp,GIV-Gai inh,HCMV UL50-53 inh
CC(=O)Nc1ccc(NS(=O)(=O)c2ccc3c(c2)CCCC(=O)N3)cc1,x,x,106,-17
Cc1cc(C)c2c(n1)SCC(=O)N2CC(=O)Nc1ccc(C)c(C)c1,92,95,109,1
CCOC(=O)c1ccc(CSc2ccc(Cl)cc2)o1,101,106,108,12
N#C/C(=C\c1ccc(O)c(O)c1)C(=O)Nc1ccccc1,x,x,207,-40&-107
O=C(NCCc1ccccc1)C1CCN(S(=O)(=O)N2CCCCC2)CC1,102,90,100,x
CCOc1ccc(N(CC(=O)Nc2ccc3c(c2)OCO3)S(=O)(=O)c2ccccc2)cc1,102,88,101,-5
COCc1nnc(NC(=O)C2C(C=C(C)C)C2(C)C)s1 (stereo unspecified),96,96,97,16
COc1ccc(CCNC(=O)CSc2nnc(CNC(=O)c3c(F)cccc3Cl)o2)cc1OC,109,91,104,-11

(listing goes on)
structure,Sa growth 42C,Sa growth 42C second temp,GIV-Gai inh,HCMV UL50-53 inh
CCc1c(C)c(C#N)c2[nH]c3ccccc3n2c1=O,82,71,108,x
COC(=O)c1scc2c(N3CCCCC3)cc(C(F)(F)F)nc12,90,96,108,1
CSc1ccc(NC(=O)NCCn2cnc3cccnc32)cc1,131,85,97,12
CCN(CC)CCOc1nnc(-c2ccc(Cl)cc2)c2ccccc12,x,x,99,-19
CCOC(=O)c1c(NC(=S)NCCn2cc(Br)cn2)sc2c1CCCCC2,107,89,106,-8
CCOc1cccc(-c2cc(C(=O)Nc3cc(C)on3)c3ccccc3n2)c1,x,x,106,-10
COc1cccc(/C=N/NC(=O)c2cccc(C)c2)c1O,70,41,104,-9
Cc1ccc(C(=O)NC(C(C)C)C(C)C)cc1,75,72,96,-8

Arranged by formula weight (ascending): 7 of the compounds above.
structure,Sa growth 42C,Sa growth 42C second temp,GIV-Gai inh,HCMV UL50-53 inh
Cc1ccc(C(=O)NC(C(C)C)C(C)C)cc1,75,72,96,-8
COc1cccc(/C=N/NC(=O)c2cccc(C)c2)c1O,70,41,104,-9
COCc1nnc(NC(=O)C2C(C=C(C)C)C2(C)C)s1 (stereo unspecified),96,96,97,16
CSc1ccc(NC(=O)NCCn2cnc3cccnc32)cc1,131,85,97,12
COC(=O)c1scc2c(N3CCCCC3)cc(C(F)(F)F)nc12,90,96,108,1
CCN(CC)CCOc1nnc(-c2ccc(Cl)cc2)c2ccccc12,x,x,99,-19
CCOc1cccc(-c2cc(C(=O)Nc3cc(C)on3)c3ccccc3n2)c1,x,x,106,-10

The list continues.
structure,Sa growth 42C,Sa growth 42C second temp,GIV-Gai inh,HCMV UL50-53 inh
Cc1c(C(=O)N2CCOCC2)[nH]c2c1C(=O)CC(c1ccc(Cl)cc1)C2 (stereo unspecified),113,74,103,x
O=C1CC(NC2CCN(S(=O)(=O)c3ccc(Cl)cc3)CC2)C(=O)N1 (stereo unspecified),79,97,109,-2
Cc1ccc(-n2nc(C)c3c(C)c(CCC(=O)NCc4ccccc4Cl)c(C)nc32)cc1,110,81,100,-16
O=C(NCCC1=CCCCC1)c1ccc(Nc2ccnc(-c3ccc(F)cc3)n2)cc1,x,x,100,-14
c1ccc(Nc2nc3nonc3nc2N2CCOCC2)cc1,130,45,100,-66
COc1ccc(NC(=O)C2CCN(C(=O)/C=C/c3ccccc3)CC2)cn1,106,85,x,-29
C=CCN1C(c2ccccc2)=CSC1/N=C/c1ccccc1 (stereo unspecified),128,83,x,-4
CC1Sc2ccc(S(=O)(=O)CCC(=O)N(C)Cc3ccccc3)cc2NC1=O (stereo unspecified),104,84,101,-18

(continued)
structure,Sa growth 42C,Sa growth 42C second temp,GIV-Gai inh,HCMV UL50-53 inh
COc1ccc(NC(=O)NCCC2=CCCCC2)cc1,96,105,107,-3
O=C(COCc1cc(-c2ccc(F)cc2)on1)Nc1cc(F)ccc1F,110,90,105,x
CCc1ccc(C2NC(=O)NC(C)=C2C(=O)Nc2ccccc2)cc1 (stereo unspecified),125,91,x,-23
O=C(Cc1cn2ccsc2n1)NCCc1ccc(F)cc1,94,90,x,-9
COCC(C)NC(=O)c1ccc(NS(=O)(=O)c2ccccc2)cc1 (stereo unspecified),101,100,109,-32
Cc1ccc(-c2cc(C(=O)NCc3ccc4c(c3)OCO4)[nH]n2)cc1,x,x,99,-15
O=C(COC(=O)Cc1ccc(Cl)cc1)NCC1CCCO1 (stereo unspecified),80,92,x,-15
CCC(Sc1nc2ncccc2[nH]1)C(=O)NC1CCC(C)CC1 (stereo unspecified),98,82,100,x

Reformatted: results already given.
Each structure is followed by: Sa growth 42C | Sa growth 42C second temp | GIV-Gai inh | HCMV UL50-53 inh
O=C(COCc1cc(-c2ccc(F)cc2)on1)Nc1cc(F)ccc1F
    110 | 90 | 105 | x
CCC(Sc1nc2ncccc2[nH]1)C(=O)NC1CCC(C)CC1 (stereo unspecified)
    98 | 82 | 100 | x

(listing goes on)
structure,Sa growth 42C,Sa growth 42C second temp,GIV-Gai inh,HCMV UL50-53 inh
Cc1ccccc1OCC(=O)O/N=C(\N)c1ccncc1,80,86,101,-35
CCN(CC)Cn1[nH]c(=O)ccc1=O,92,113,105,-22
O=C(N/N=C/c1cccs1)c1ccc(N2CCCC2=O)cc1,96,112,102,-45
O=C(c1ccco1)N1CCC(N(CCc2ccccc2)Cc2ccccc2)CC1,82,61,102,x
CC(C(=O)O)N1CCCCC1 (stereo unspecified),87,97,101,-16
CCC(Sc1nc2ccccc2c2nc(CCn3cncc3C)nn12)C(=O)NC1CCCCC1 (stereo unspecified),111,84,98,1
COC(=O)C1=C(C)NC(=O)CC1c1ccc(C(C)C)cc1 (stereo unspecified),120,95,93,-6
CCOC(=O)C1=C(N)OC2=C(C(=O)CC(c3ccccc3)C2)C1c1cccc(Br)c1 (stereo unspecified),x,x,105,1

4 entries from above, field by field:
CCN(CC)Cn1[nH]c(=O)ccc1=O
  Sa growth 42C: 92
  Sa growth 42C second temp: 113
  GIV-Gai inh: 105
  HCMV UL50-53 inh: -22

COC(=O)C1=C(C)NC(=O)CC1c1ccc(C(C)C)cc1 (stereo unspecified)
  Sa growth 42C: 120
  Sa growth 42C second temp: 95
  GIV-Gai inh: 93
  HCMV UL50-53 inh: -6

Cc1ccccc1OCC(=O)O/N=C(\N)c1ccncc1
  Sa growth 42C: 80
  Sa growth 42C second temp: 86
  GIV-Gai inh: 101
  HCMV UL50-53 inh: -35

CC(C(=O)O)N1CCCCC1 (stereo unspecified)
  Sa growth 42C: 87
  Sa growth 42C second temp: 97
  GIV-Gai inh: 101
  HCMV UL50-53 inh: -16

New compounds follow.
structure,Sa growth 42C,Sa growth 42C second temp,GIV-Gai inh,HCMV UL50-53 inh
O=C(CSC1=NCCS1)N1CCc2c([nH]c3ccccc23)C1C(F)(F)F (stereo unspecified),62,57,102,-24
O=C(CSC1=NCCc2ccccc21)Nc1ccc(F)cc1F,95,84,103,-4
Cc1nn(CC(=O)N2CCCCC2)c(C)c1S(=O)(=O)NC(C)(C)C,95,89,x,6
O=C(CSc1nc2ccccc2c2nc(-c3ccccc3)nn12)Nc1ccc(Br)cc1,103,87,104,x
CC(C)(C)OC(=O)N1CCCN(C(=O)c2cccs2)CC1,109,86,100,x
COc1ccc(/C=C/C(=O)Nc2ccc3c(c2)OCO3)cc1S(=O)(=O)N1CCCCC1,107,81,x,-18
O=C(Cn1c(=O)n(Cc2ccco2)c(=O)c2ccc(C(=O)NC3CCCC3)cc21)Nc1ccc(F)cc1,91,93,101,-32
Cc1nc2c(c(C)nn2-c2ccccc2)c(C)c1CCC(=O)NCCc1ccc(Cl)cc1,103,83,99,-22

The list continues:
structure,Sa growth 42C,Sa growth 42C second temp,GIV-Gai inh,HCMV UL50-53 inh
COc1ccc(-c2c(C)nn3c(C(F)(F)F)cc(-c4ccc(C)cc4)nc23)cc1,87,91,98,-11
Cc1ccc(-n2c(=O)c3oc4ccccc4c3n(Cc3ccccc3F)c2=O)cc1C,94,103,105,x
CCOC(=O)C(C#N)Cc1c(C)c(C)c(C)c(C)c1C (stereo unspecified),85,85,107,-18
CN(C)S(=O)(=O)c1ccc(S(=O)(=O)N2CCC3(CC2)OCCO3)cc1,99,91,99,x
O=C1CN=C(Nc2ccccc2Cl)N1Cc1ccccc1,127,104,102,15
CCS(=O)(=O)N1CCC(C(=O)NCc2ccc3c(c2)OCO3)CC1,105,85,105,-4
O=C(COc1ccccc1)N1CCN(S(=O)(=O)c2cc3c4c(c2)CCN4C(=O)CC3)CC1,x,x,105,-28
CCOc1cc(C2NS(=O)(=O)N=C3CCCN32)ccc1OCCOc1cccc(C)c1 (stereo unspecified),105,99,x,6

(next part)
structure,Sa growth 42C,Sa growth 42C second temp,GIV-Gai inh,HCMV UL50-53 inh
Cc1n[nH]c(C)c1NC(=O)CN(C)C(=S)NC1CC2CCC1C2 (stereo unspecified),100,87,x,-2
Cc1cc(-c2nc(-c3ccc(C(F)(F)F)cc3)no2)n(C)n1,91,80,100,5
CCc1cccc(NC(=O)Cn2c(=O)n(CC3CCC(C(=O)NC)CC3)c(=O)c3sccc32)c1 (stereo unspecified),71,65,96,x
Cc1ccc(S(=O)(=O)Cc2ccc(C(=O)NCCc3ccc(Cl)cc3)o2)cc1,104,78,99,-5
COC(=O)/C(C#N)=C/c1ccc(OC)cc1,109,95,99,-165
COc1cccc(-c2nc3cc(OC)c(OC)cc3c(=O)o2)c1,99,102,108,x
Cc1nc2ccn(Cc3cccnc3)c(=O)c2cc1C(=O)NCCCc1ccco1,88,76,93,-36
CCOc1cc(CNC(=O)Cn2c(-c3cccs3)cc3cc(F)ccc32)ccc1OC,112,88,104,x

Going on with the list.
structure,Sa growth 42C,Sa growth 42C second temp,GIV-Gai inh,HCMV UL50-53 inh
CCN(CC)c1ccc2cc(C(=O)NC(C)=O)c(=Nc3ccc(OC)cc3)oc2c1,x,x,107,-19
O=C(CSc1ccccc1)N1CCc2c([nH]c3ccccc23)C1c1ccc(F)cc1 (stereo unspecified),85,94,101,x
O=C(OCCN(C1=NS(=O)(=O)c2ccccc21)c1ccc(Cl)cc1)c1cccs1,91,90,99,x
COc1ccccc1CNC(=O)C(CC(C)C)N1Cc2ccccc2C1=O (stereo unspecified),90,85,101,x
CC1CCC(NC(=O)C2(C)Cn3c(cc4occc43)C(=O)N2c2ccc(C(C)C)cc2)CC1 (stereo unspecified),x,x,102,-26
Cc1nc(-c2cccs2)sc1NC(=O)Nc1ccc(Cl)cc1,75,85,108,-5
C=CCn1nnc(NCc2ccc(-c3cccc(Cl)c3C)o2)n1,x,x,100,-11
CN(CCC#N)C(=O)c1ccc2c(c1)N(Cc1cccc(Cl)c1)C(=O)c1ccccc1S2=O (stereo unspecified),101,97,101,10

New compounds follow.
structure,Sa growth 42C,Sa growth 42C second temp,GIV-Gai inh,HCMV UL50-53 inh
NC(=O)CC(=O)c1c(O)c2ccccc2n(-c2ccccc2)c1=O,82,90,x,-14
COc1cc(CO)ccc1OCc1ccc(Cl)cc1,83,75,103,-8
CCOC(=O)c1c(C)nn(-c2ccc(NC(=O)C(C)(C)C)cc2)c1C,80,89,101,-6
CC(C)(C)NC(=O)Cn1nnc(-c2cccs2)n1,95,100,110,2
CN(C(=O)c1cc2cccnc2n(Cc2ccccc2)c1=O)C1CCCCC1,x,x,104,4
c1ccc(-c2noc(CSc3nnc(C4CC4)n3-c3ccccc3)n2)cc1,103,104,109,4
Cc1onc(-c2c(F)cccc2Cl)c1/C(N)=N/O,131,89,98,-6
COc1ccc(C2CC(=O)C3=C(C2)NC(C)=C(C(=O)OC2CCCC2)C3c2ccc(OC)c(OC)c2)cc1OC (stereo unspecified),x,x,98,-29
Cc1ccc(S(=O)(=O)c2ccc(N/N=C/c3c(O)n(C)c(=O)n(C)c3=O)cc2)cc1,101,78,x,-38
COc1ccc(-n2cc[nH]c(=O)c2=O)c(C)c1,x,x,106,-41
